# Source: PubChem (ICCB-Longwood Screening Facility, Harvard Medical School)
# AID504770: growth inhibition of E. coli YBA685, primary screen, V. cholerae RctB inhibitors. E. coli YBA685 rctB-dependent plasmid, OD600 growth, 3 h; stronger effect = lower value. z-score (concentration not given with the values). AID 504770, 2011. hit rate 0.27% among 130,000;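 active means z-score under -2 on both plates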;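 further: wells of about 30 µL received 100 nL stock; score is relative to mean and SD of the test wells; the first replicate is given; strong numbers were not always called active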
# Ba CapD inh: Bacillus anthracis CapD inhibitors, primary screen, biochemical, fluorescence intensity; CapD gamma-glutamyltranspeptidase (Bacillus anthracis Ames Ancestor); purified CapD enzyme, fluorescence intensity read-out; stronger effect = lower value; some hits fall short of the stated cut; z-score (concentration not given with the values); hit rate 0.23% among 140,000; AID 492967, 2010;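 active means z-score under -4 in either of two replicates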;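 further: stock transfer was 100 nL into about 40 µL; score is relative to mean and spread of the plate; one replicate is shown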
# The depositor's hits bear a star; . = no result given.
Molecule,AID504770,Ba CapD inh
CCN(CC)c1cc(C)c2cc(NC(=O)c3ccc(Br)c(OC)c3)ccc2n1,.,0.24
O=C1CCCN=C(Nc2ccc(F)c(Cl)c2)S1,1.6,-0.21
CCOC(=O)c1cc(Sc2ccccc2)cc(C(=O)OCC)n1,-0.8,0.04
COc1cccc(C2NC(=O)NC(C)=C2C(=O)Nc2ccccc2OC)c1 (centres undefined),.,-0.31
CCOC(=O)c1cnn(-c2nc3ccccc3n2C)c1/N=C/N(C)C,1,.
N/N=C1\CCCc2c1[nH]c1ccc(C(=O)NN)cc21,-1.5,-0.33
O=C1CN(CC(=O)N2CCN(c3ccc(F)cc3)CC2)c2ccccc2O1,1.9,0.11
O=S(=O)(Nc1ccc2oc3c(c2c1)CCCC3)c1ccc(F)cc1,-0.25,0.23
N#Cc1cccc(C(=O)OCc2cc(=O)oc3cc(O)ccc23)c1,0.15,.
CCOC(=O)c1cc(O)c(C(=O)OCC)s1,-0.4,.
CCNC(=O)NCc1nc(-c2ccccc2)no1,-1.4,-0.01
CC1=NN(c2ccccc2)C(=O)C1C(c1ccccc1Cl)C(C#N)C#N (centres undefined),.,-0.42
COC(=O)C1=CN(Cc2ccc(Cl)cc2)C=C(C(=O)OC)C1c1cc2c(cc1Br)OCO2,.,2.7
FC(F)(F)c1ccnc(N2CCCNCC2)n1,.,1.8
Cc1ccc2c(c1)N(Cc1ccccc1)C(C)(C)c1ssc(=Nc3cccc(Cl)c3)c1-2,.,-0.23
CN(C)C=NC(=S)c1sccc1CSc1ccc(Cl)cc1,1.8,-2.2
COC(=O)c1[nH]c(=O)c2ccccc2c1OCc1ccccc1,-0.95,.
Cc1onc(-c2c(Cl)cccc2Cl)c1C(=O)n1c(C)nc2ccccc21,-0.2,.
CCc1ccn2cc(Nc3ccccc3Cl)nc2c1,-0.5,90
CC1CCCCC1NC(=O)Cn1ccc2ccccc21 (centres undefined),-0.5,.
NC(N)=NCc1cccnc1,0,-0.08
CC(C)CCn1c(=O)c2ccccc2n2c(CN(C)CCOc3ccc(Cl)cc3)nnc12,-0.1,.
CN(C)S(=O)(=O)c1ccc(C(=O)Nc2c3c(nn2-c2ccc(F)cc2)CS(=O)(=O)C3)cc1,.,-0.035
CC(C)c1nn(-c2ccc(C(F)(F)F)cn2)c(=O)o1,-0.2,0.64
Cn1c2ccccc2c2cc(CC(N)=O)ccc21,-0.6,30
Oc1ccc(COCc2ccccc2)c2cccnc12,-1.4,-0.81
CC1(C)Cc2c(sc(NC(=S)NC(=O)c3ccccc3)c2C#N)CO1,.,-0.54
CCOC(=O)CC1C(=O)NCCN1S(=O)(=O)c1ccc(Cl)c(Cl)c1 (centres undefined),.,-0.21
COc1ccc(-c2cc(C(F)(F)F)nc(SCC(=O)NN3CCN(C)CC3)n2)cc1,-0.2,.
CC(C)(O)C#Cc1ccc(C(=O)NCCC(=O)O)s1,-0.1,-0.14
CCOC(=O)C1=C(C)Nc2c(C(=O)Nc3ccc(OCC)cc3)cnn2C1c1cc(OC)ccc1OC (centres undefined),1.6,0.45
CC1(C)CC(C(=O)Nc2nccs2)CCO1 (centres undefined),-0.7,0
O=C(CSc1nnc(C2CC2)n1Cc1ccco1)c1cccc(Cl)c1,1.5,.
O=S1(=O)C=C(SCCN2CCOCC2)c2ccccc21,-3.4*,0.33
COc1ccc(/C=N/NC(=O)c2ccc[nH]2)c(OC)c1C,.,-0.055
COc1ccc(/C=N/NC(=O)c2ccc(OC(F)(F)F)cc2)c2ccccc12,.,0.39
Cc1ccccc1NC(=O)C(C)N(c1ccccc1)S(C)(=O)=O (centres undefined),-0.4,0.07
COC(=O)CC1COc2ccccc2N1C(=O)/C=C/c1ccccc1 (centres undefined),0.05,-0.66
Cn1nc(NC(=O)CC(C)(C)CC(=O)O)c2ccccc21,2.7,0.03
CC(C)c1ccc(C2Nc3ccc4ncccc4c3C3=C2C(=O)CC(C)(C)C3)cc1 (centres undefined),.,0.095
CCCc1ccc(-c2nc(CCC)no2)cc1,-0.65,-0.3
N#CCSc1nc2c(n1-c1ccccc1)CCCC2,0,.
O=C(NCc1cccnc1)c1cccn2c(=O)c3ccc(Cl)cc3nc12,0.95,1.1
COc1ccc(N/C=C(\C#N)C(N)=S)cc1,1.8,-2.4
O=C(COCc1cc(-c2ccco2)on1)N1CCc2ccccc2C1,0.2,1
CC1CCN(S(=O)(=O)c2ccc3ncn(CC(=O)Nc4cnc5ccccc5c4)c(=O)c3c2)CC1,0.25,0.17
COc1ccc(CN(Cc2cccnc2)C(=S)NCc2ccco2)cc1OC,-0.55,.
Nc1ccc(C(=O)N/N=C/c2cccn2-c2ccc(S(N)(=O)=O)cc2)cc1,-0.5,.
CCn1nnc2cc(C(=O)NC3CCCc4ccccc43)ccc21 (centres undefined),-0.1,.
COc1cc2nc(=S)n3c(c2cc1OC)NC(CCC(=O)NCCN1CCN(c2cccc(Cl)c2)CC1)C3=O (centres undefined),-0.5,0.92

# (further entries)
Molecule,AID504770,Ba CapD inh
COC(=O)c1nnc(-c2ccccc2)c(-c2ccccc2)n1,0.5,-0.36
O=C1NC(=O)C2(COC(c3cccnc3)OC2)S1 (centres undefined),-0.85,-0.05
CN1C(=O)/C(=C\C2(C)N3CC4(C)CN2CC(C)(C3)C4=O)c2ccccc21 (centres undefined),-0.1,.
CC1CC(CC(C)C(=O)NC(=S)Nc2nncs2)C(=O)O1 (centres undefined),-0.2,-0.41
O=C(O)C1C(C(=O)O)C1C(=O)O (centres undefined),0.85,-0.36
COc1ccc(Oc2coc3cc(OC(=O)c4ccc(Br)cc4)ccc3c2=O)cc1,.,0.11
CN(C(=O)/C=C/c1ccc(Br)o1)c1ccccc1,-0.7,-1.3
O=C(NCCS(=O)(=O)c1ccc(Cl)cc1)c1ccc(Cl)c(Cl)c1,.,-0.6
CC(=O)OC1N=C(c2ccccc2)c2cc(C)ccc2NC1=O (centres undefined),.,-0.21
O=C(N/N=C/c1ccncc1)C1CC1C(=O)N/N=C/c1ccncc1 (centres undefined),-0.6,-0.035
COc1ccc(CCN(C)C(=O)COc2nncc3ccccc23)cc1OC,0.8,.
CN(C)S(=O)(=O)c1ccc(C(=O)Nc2c(C#N)oc3ccccc23)cc1,-0.15,.
COc1cc([N+](=O)[O-])c(OC)cc1SCc1n[nH]c(=S)n1-c1cccc(Cl)c1,.,0.28
Cc1cc(C)nc(Nc2n[nH]c(-c3cccnc3)n2)n1,1.7,-0.82
Cn1c(C2CC(=O)N(c3ccccc3)C2)nc2ccccc21 (centres undefined),1.1,-0.34
CCOc1cc(C2Nc3ccc4ccccc4c3C3=C2C(=O)CC(C)(C)C3)cc(Br)c1O (centres undefined),.,-0.53
O=C(CC(C(=O)O)N1CCN(c2cccc(Cl)c2)CC1)c1ccc(C2CCCCC2)cc1 (centres undefined),0,-0.29
Cc1cnc(NC(=O)CSCc2nc3scc(-c4cccs4)c3c(=O)[nH]2)s1,0.45,.
CC(C)(C)c1csc(CS(=O)(=O)c2ccccn2)n1,-0.35,0.73
COC(=O)c1ccc(CSc2nnc3c4ccccc4n(C)c3n2)cc1,-0.3,0.49
CCN1CC(NS(=O)(=O)c2ccccc2C#N)CN1CC,.,0.11
Cc1nnc(SC(C)C(=O)Nc2ccc(Cl)cn2)s1 (centres undefined),-0.45,.
Cc1nnc(Nc2ccc(N3CCCCC3)cc2)[nH]c1=O,0.9,-0.81
Cc1nc2ccccc2c(=O)n1OC(=O)c1ccc(C(C)(C)C)cc1,.,-1.4
C#CCSc1nc2ccccc2[nH]1,-0.35,.
COc1cc(NC(=O)CSCc2cnn(-c3ccccc3)c2-n2cccc2)cc(OC)c1,1.7,0.035
CCOc1ccc2nc(Nc3nc(C)c(C)c(C)n3)nc(C)c2c1,.,6.8
O=C(OCC(=O)N1CCCC1)c1cn(-c2ccccc2)nc1-c1ccccc1,0.5,0.2
COc1ccc2c(c1)c(-c1csc(N)n1)c(C)n2C,-0.6,7.2
CCN(C(=O)c1cccc(OC)c1)C1CCS(=O)(=O)C1 (centres undefined),0.2,.

# Some of the entries above, reformatted:
# Every second line gives: AID504770, Ba CapD inh
- Cn1c2ccccc2c2cc(CC(N)=O)ccc21
    -0.6, 30
- CC(C)CCn1c(=O)c2ccccc2n2c(CN(C)CCOc3ccc(Cl)cc3)nnc12
    -0.1, .
- COc1ccc(/C=N/NC(=O)c2ccc(OC(F)(F)F)cc2)c2ccccc12
    ., 0.39
- O=C(O)C1C(C(=O)O)C1C(=O)O (centres undefined)
    0.85, -0.36
- O=C(CSc1nnc(C2CC2)n1Cc1ccco1)c1cccc(Cl)c1
    1.5, .
- COC(=O)c1ccc(CSc2nnc3c4ccccc4n(C)c3n2)cc1
    -0.3, 0.49
- CCNC(=O)NCc1nc(-c2ccccc2)no1
    -1.4, -0.01

# Next entries.
Molecule,AID504770,Ba CapD inh
O=c1ccc(-c2nc(-c3ccc(Cl)cc3)no2)cn1Cc1ccc(Cl)cc1,.,0.15
CCOC(=O)C1CCCN(CCC(=O)Nc2cc(C)ccc2C)C1 (centres undefined),0.15,-0.94
COc1ccc(C(=O)CN2CCN(C(=O)CC(C)C)CC2)cc1,-0.9,0.1
CNC(=S)NNC(=O)c1cccs1,.,-0.055
O=c1cc(-n2ccc(C(F)(F)F)n2)oc2ccccc12,-0.55,-0.06
CC12c3ccccc3C(c3ccccc31)C1C(=O)N(c3ccc(F)cc3)C(=O)C12 (centres undefined),.,-0.23
CCCN1C(=O)c2cc(C(=O)NCc3cccs3)ccc2C1O (centres undefined),-1.8,-1
Cc1ccc(C(=O)OC(CN=C2NS(=O)(=O)c3ccccc32)COc2ccccc2)cc1 (centres undefined),.,-1.3
O=C1OC(c2ccc(Cl)cc2)c2ccccc21 (centres undefined),.,-0.31
CC(C)=C1C2CC2C2C(C(=O)O)C12 (centres undefined),-1.1,-0.29
COc1ccccc1C1C=C(c2ccc(Br)cc2)Nc2nc3ccccc3n21 (centres undefined),.,-0.42
CCN1OCN(c2nc(N(C)C)nc(N(C)C)n2)C1=N,-0.35,-0.76
CCN1CCN(c2ccc(Nc3ccnc4ccccc34)cc2)CC1,.,-1.6
O=c1/c(=C\c2ccc(Oc3ccc([N+](=O)[O-])cc3[N+](=O)[O-])cc2)sc2nc3ccccc3n12,.,0.53
CCOC(=O)c1c(CN2CCN(c3ccccc3)CC2)oc2cc(Br)c(OC(C)=O)cc12,1.9,-0.34
N/C(CN1CCCCC1)=N\O,1.8,0.99
O=C1C2C(c3ccc(F)cc3)OC3(C(=O)c4ccccc4C3=O)C2C(=O)N1c1ccccc1C(F)(F)F (centres undefined),.,-0.06
O=C(Cn1cnc2sc3c(c2c1=O)CCCC3)NCc1ccccc1,-0.55,1.2
CCN(C(=O)CSc1nc2ccccc2o1)c1ccccc1,-0.15,-0.13
CN(C)C(=O)CSc1nnc(-c2cccnc2)n1-c1ccccc1,-0.4,0.005
Cn1ccnc1SCC(=O)Nc1ccc(C2CCCCC2)cc1,0.35,-0.045
COc1ccc(CN2CCN(S(=O)(=O)c3ccc(Cl)c(Cl)c3)CC2)cc1F,.,-0.6
O=C(c1ccc2ncsc2c1)N1CCCC1c1cccs1 (centres undefined),-0.05,.
CCOC(=O)c1nn(-c2ccc(Cl)cc2Cl)c(=N)c(C#N)c1C,-0.9,0.14
CCCN1CCN(Cc2ccc(OCC(=O)Nc3ccc(Br)cc3)c(OC)c2)CC1,0.6,.
O=C(O)c1ccccc1S(=O)(=O)N1CCCCC1,-0.9,.
N#CCC(=O)NCc1ccncc1,0.05,0.27
CCOC(=O)c1sc(N)c(C#N)c1CSc1nc2ccc(OCC)cc2[nH]1,1.2,.
CCN1C(=O)C(Cc2nc3ccccc3c(=O)[nH]2)c2ccccc21 (centres undefined),-0.25,0.73
COc1ccc(CN2CCCN(S(=O)(=O)c3ccc(Br)cc3)CC2)cc1,-0.35,3.7
CC1(C)OC(c2ccccc2)=C/C(=C/C=C(C#N)C#N)O1,0.95,-0.54
Oc1ccc(-c2nc(-c3cccs3)c(-c3cccs3)[nH]2)cc1,1.9,66
N#Cc1ccc(NC(=O)c2cc3cc4c5c(c3oc2=N)CCCN5CCC4)cc1,-1.6,0.89
COc1cc(NC(=O)c2ccc3c(=O)n(Cc4ccc(Cl)cc4)c(=S)[nH]c3c2)cc(OC)c1OC,.,0.23
Cc1c(Cl)cccc1NC1=CC(=O)CCC1,-0.15,0.17
CCCN1C(=O)c2ccccc2NC1c1ccc(OC)c(COc2ccc(F)cc2)c1 (centres undefined),.,4.7
COC(=O)c1c(C)[nH]c(C)c1/C=N/OC(=O)c1ccco1,-0.4,2.4
C1CCN(c2nn[nH]n2)CC1,.,0.46
CC1(C)C2CCC(COC(=O)NNC(=O)/C=C/c3ccc(F)cc3Cl)C1C2 (centres undefined),.,19
O=C(OC1OCCOC1OC(=O)C1CCCCC1)C1CCCCC1 (centres undefined),-0.35,.

# Arranged by molecular weight (smallest number first): part of the list above
Molecule,AID504770,Ba CapD inh
O=c1cc(-n2ccc(C(F)(F)F)n2)oc2ccccc12,-0.55,-0.06
CC1=NN(c2ccccc2)C(=O)C1C(c1ccccc1Cl)C(C#N)C#N (centres undefined),.,-0.42
CCOC(=O)c1c(CN2CCN(c3ccccc3)CC2)oc2cc(Br)c(OC(C)=O)cc12,1.9,-0.34
